# Screens as filed in PubChem.
# GALR2 agonist: GALR2 receptor agonists, primary screen, cell-based. AID 803, 2007. GALR2-expressing cells, agonist activation read-out. hit rate 0.48% among 140,000. activation, %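 (tested at 5 µM)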. Galanin receptor type 2 (Homo sapiens), O43603;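 active = above mean plus 3 SD of all compounds, about 5% in these data, not always enough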;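 also: 0% = vehicle buffer wells and 100% = reference agonist at full effect; tested in CHO reporter cells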
# PKD1 kinase inh: inhibitors of human PKD1 kinase, biochemical, fluorescence polarization. PKD1 kinase fluorescence polarization assay. hit rate 0.056% among 200,000. inhibition, %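 (about 10 µM by stock and volumes)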. Serine/threonine-protein kinase D1 (Homo sapiens), Q15139;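 active = inhibition of 50% or more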;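 also: controls were vehicle for no effect and a reference inhibitor for full effect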
# Target sequence (Q15139 whole entry, looked up): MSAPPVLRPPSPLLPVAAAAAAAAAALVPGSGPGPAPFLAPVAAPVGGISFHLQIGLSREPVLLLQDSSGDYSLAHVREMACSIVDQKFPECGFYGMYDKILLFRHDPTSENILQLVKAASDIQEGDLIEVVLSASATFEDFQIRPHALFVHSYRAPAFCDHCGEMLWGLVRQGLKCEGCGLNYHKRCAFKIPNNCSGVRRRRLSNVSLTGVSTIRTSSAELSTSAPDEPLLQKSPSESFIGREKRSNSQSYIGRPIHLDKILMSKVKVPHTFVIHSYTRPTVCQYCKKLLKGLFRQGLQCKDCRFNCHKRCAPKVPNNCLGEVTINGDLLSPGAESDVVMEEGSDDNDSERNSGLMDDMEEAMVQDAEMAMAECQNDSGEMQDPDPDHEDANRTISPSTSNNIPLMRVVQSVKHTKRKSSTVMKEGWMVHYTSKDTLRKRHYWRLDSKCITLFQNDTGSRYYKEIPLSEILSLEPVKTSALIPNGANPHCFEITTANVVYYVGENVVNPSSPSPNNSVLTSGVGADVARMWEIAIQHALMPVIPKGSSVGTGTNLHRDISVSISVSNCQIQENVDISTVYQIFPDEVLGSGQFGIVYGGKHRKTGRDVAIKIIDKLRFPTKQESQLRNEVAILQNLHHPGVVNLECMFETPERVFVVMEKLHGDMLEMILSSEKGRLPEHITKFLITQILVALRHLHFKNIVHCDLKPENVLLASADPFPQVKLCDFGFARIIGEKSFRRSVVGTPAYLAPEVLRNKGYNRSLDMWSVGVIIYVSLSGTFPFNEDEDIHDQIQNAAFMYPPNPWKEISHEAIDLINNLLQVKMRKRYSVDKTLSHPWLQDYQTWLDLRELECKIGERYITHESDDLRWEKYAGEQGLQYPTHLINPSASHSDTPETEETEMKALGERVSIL
# INS promoter inh: inhibitors of insulin promoter-driven GFP, primary screen, imaging, TRM-6 cells (human fetal islet line), eGFP reporter, cell count; reporter expression induced with tamoxifen; inhibition, % at 2 µM; hit rate 0.9% among 130,000; AID 1273, 2008;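 active = inhibition above the mean plus 3 SD, with well images judged a real hit on visual review, cut at about 60% in these data, passing the limit was not always enough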
# RGS16-Gao: modulators of RGS16 binding to Galphao, primary screen, biochemical, human proteins, multiplexed bead flow cytometry. bead-based flow cytometry RGS16-Galphao binding, fluorescence; actives lie on both sides. hit rate 0.38% among 220,000. Regulator of G-protein signaling 16 (Homo sapiens) + Guanine nucleotide-binding protein …. binding response (% of control), % at 10 µM;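 active = below 25% or above 175%, edge rows of some plates excepted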;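 also: Galphao activated by GDP with aluminum fluoride before binding; 100% = wells without compound and 0% = beads without RGS; some results beyond the cut were filed as inactive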
# HSV replic up: enhancers of HSV replication in host cells, fold increase, host cell viability; AID 1956, 2009; maximum fold increase; HSV replication augmentation in cells; hit rate 0.005% among 220,000;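 active = peak rise of 1.5-fold or more in the series; tested in PC3 cells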;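 also: first round at 10 µM; read as green reporter fluorescence; hits show the peak of a series up to 25 µM; 1 = signal of infected wells without compound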
# INS promoter inh cell count: recorded beside INS promoter inh, whose call it bears; normalized cell count, %; measured here: cell count, toxicity; reference of the scale not given here;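 cells exposed to compound for 48 h; stained nuclei by imaging scaled within each plate; lower means fewer cells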
# HSV replic up primary fold: also measured in HSV replic up; calls as there; fold increase; compound at 10 µM; measured here: primary screen fold increase 10 uM; tested in PC3 cells;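 GFP signal in the first replicate; 1 = infected wells without compound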
# * = called active by the depositor; i = inactive; . = no result given. Outcome played no part in choosing rows; overall some 1.3% were active at least once.
SMILES,GALR2 agonist,PKD1 kinase inh,INS promoter inh,INS promoter inh cell count,RGS16-Gao,HSV replic up,HSV replic up primary fold
COCCNCc1nc2sc(C)c(-c3ccccc3)c2c(=O)[nH]1,.,.,.,.,104,i,0.93
Oc1csc(Cc2nc(-c3ccc4ccccc4c3)cs2)n1,-0.5,9,.,.,98,i,1.1
C=CCNC(=S)/N=c1\sccn1C,-0.3,-9,-15,94,104,i,0.93
Cc1c(NC(=O)CSc2cccc3cccnc23)c(=O)n(-c2ccccc2)n1C,-0.5,3,-9,140,110,i,1
O=C(/C=C/c1ccccc1)Nc1cc(S(=O)(=O)N2CCOCC2)ccc1N1CCCC1,1.4,4,23,92,100,i,1.1
CCCN1CCOC(CC(=O)Nc2ccc([N+](=O)[O-])cc2)C1=O (configuration not stated),.,1,.,.,101,i,0.88
CC1(C)CC(=O)C2=C(C1)Nc1ccccc1NC2,.,-7,-27,141,106,i,1.2
COC(=O)c1ccc(COc2ccccc2/C=N/O)o1,.,.,.,.,97,i,0.96
Nc1c2c(nc3sc4c(c13)CCCCC4)CCCCC2,-1.0,4,12,95,132,i,0.72
C/C=C/C=N/Nc1nc(-c2ccc([N+](=O)[O-])cc2)cs1,-0.7,-6,31,68,24,i,0.83
COc1ccc(/C=N/NC(=O)c2c([N+](=O)[O-])c(C)nn2C)cc1,-1.4,0,45,137,91,i,0.98
COc1cccc(Nc2nc3ccc(OC)cc3s2)c1,.,4,71*,106*,100,i,0.94
COc1ccc2c(CC(=O)Nc3nnc(C4CC4)s3)coc2c1,-0.4,-14,34,95,101,i,0.95
O=C(N/N=C/c1ccco1)c1ccccn1,-0.5,-16,.,.,107,i,0.69
Cc1cc(NC(=O)c2cc(C(C)(C)C)oc2C)no1,.,.,.,.,100,i,1
CCN(CC)S(=O)(=O)c1ccc(NC(=O)c2ccc(NS(C)(=O)=O)cc2)cc1,-2.0,-5,-7,101,101,i,1.1
CCC(=O)NC(=S)Nc1ccccc1C(=O)NC1CCCCC1,0.7,4,-207,129,91,i,1
CNC(=O)c1ccc2c(c1)nnn2C,-1.0,-13,-67,38,78,.,.
Cc1ccc(C(=O)/C=C2/NC(=O)CS2)cc1,-1.8,-10,.,.,106,i,0.98
COc1ccccc1N(C)S(=O)(=O)c1ccc(C(=O)OCC(=O)NCc2ccco2)cc1,-1.4,-5,.,.,101,i,0.97
CNC(=O)Cn1ncc2c(C)n(Cc3ccc(C)cc3)c(C)c2c1=O,-0.2,-3,-19,137,99,i,0.97
O=C(Nc1nccs1)c1ccc(N2C(=O)C3CCCCC3C2=O)cc1 (configuration not stated),.,-3,.,.,94,i,0.99
O=c1c2ccccc2sc2nc(C3CCCCC3)n(Cc3ccco3)c(=O)c12,-0.2,3,.,.,91,.,.
CC(C)(C)c1cc(CN(CCO)CCO)cc(C(C)(C)C)c1O,-1.6,9,41,85,99,i,1
O=C(c1cc2c(s1)CCCC2)N1CCN(C(=O)C2CCCO2)CC1 (configuration not stated),-0.8,-12,-126,86,103,i,1
C#Cc1ccc([C@@H]2C=C(C(=O)N3CCN(Cc4ccccc4)CC3)O[C@H](OCCCCO)C2)cc1,.,6,.,.,102,i,0.71
O=c1c(-c2n[nH]c(=S)n2-c2ccccc2)cccn1Cc1cccc(Cl)c1,.,0,.,.,94,i,1.1
COc1ccccc1N(C(=O)CN1C(=O)c2ccccc2S1(=O)=O)C(C(=O)NCC1CCCO1)c1ccc(F)cc1 (configuration not stated),-0.7,3,6,114,107,i,0.89
O=C(CNC(=O)c1ccc(Br)cc1)NCCc1nc2ccccc2[nH]1,-0.7,0,41,127,98,i,0.97
Cc1ccc2nsnc2c1N,.,4,.,.,105,i,1
O=C1CC(c2cccs2)Cc2nc(NC(=O)C3CC3)ncc21 (configuration not stated),.,.,.,.,89,i,0.91
COc1ccc(OC)c(Nc2cc(C)nc3ccccc23)c1,-0.5,-7,.,.,105,i,0.67
Cc1nn(-c2ccccc2)c(Cl)c1/C=N/Nc1nc2ccccc2[nH]1,5.5*,-11,29,66,104,i,0.81
CCOC(=O)N1CCN(Cc2nc3c(c(=O)[nH]c(=O)n3C)n2Cc2ccccc2C)CC1,-0.1,-3,12,109,99,i,0.87
C[N+]1(CC(=O)Nc2ccccc2Cl)CCN(C(=O)c2cccs2)CC1,-2.7,3,29,96,105,i,0.91
Cc1ccc(-n2ncc3c(N4CCC5(CC4)OCCO5)ncnc32)c(C)c1,-1.4,2,.,.,108,i,0.85

# Grouped by structure: those above containing an NH in an aromatic ring
SMILES,GALR2 agonist,PKD1 kinase inh,INS promoter inh,INS promoter inh cell count,RGS16-Gao,HSV replic up,HSV replic up primary fold
COCCNCc1nc2sc(C)c(-c3ccccc3)c2c(=O)[nH]1,.,.,.,.,104,i,0.93
O=c1c(-c2n[nH]c(=S)n2-c2ccccc2)cccn1Cc1cccc(Cl)c1,.,0,.,.,94,i,1.1
O=C(CNC(=O)c1ccc(Br)cc1)NCCc1nc2ccccc2[nH]1,-0.7,0,41,127,98,i,0.97
Cc1nn(-c2ccccc2)c(Cl)c1/C=N/Nc1nc2ccccc2[nH]1,5.5*,-11,29,66,104,i,0.81
CCOC(=O)N1CCN(Cc2nc3c(c(=O)[nH]c(=O)n3C)n2Cc2ccccc2C)CC1,-0.1,-3,12,109,99,i,0.87

# (continued)
SMILES,GALR2 agonist,PKD1 kinase inh,INS promoter inh,INS promoter inh cell count,RGS16-Gao,HSV replic up,HSV replic up primary fold
CNC(=O)c1nnsc1S(=O)(=O)c1ccc(Cl)cc1,.,-7,i,8,100,i,0.54
CCOc1ccc(OCc2cccc(C(=O)N3CCCCCC3)c2)cc1,.,-10,-29,120,97,i,0.94
CCCc1[nH]nc2c1C(c1ccc(OC)cc1OC)C(C#N)=C(N)O2 (configuration not stated),1.0,4,-31,102,105,i,0.86
CCOC(=O)C1CCCN(C(=S)NC2CCCCC2)C1 (configuration not stated),.,-6,-64,41,103,i,0.99
Cc1ccc(CNCC(=O)Nc2cccc(S(=O)(=O)NC3=NCCCCC3)c2)cc1,.,-4,.,.,97,i,1.1
O=C(COC(=O)CNC(=O)c1ccccc1)Nc1ccc2c(c1)OCO2,.,-2,.,.,98,i,1
Cc1ccc(/C=c2/sc3n(c2=O)CCCN=3)o1,-2.5,-2,44,91,87,i,0.78
CC(C)CC1=NN(C(=O)c2cccnc2)C(O)(C(F)(F)F)C1 (configuration not stated),-1.1,6,19,120,103,i,1
O=S(=O)(c1ccc(S(=O)(=O)n2cnc3ccccc32)cc1)N1CCCCCC1,-1.1,-5,.,.,88,i,1.1
CCC(C)NC(=O)COC(=O)c1cccnc1Nc1ccccc1F (configuration not stated),-1.4,-3,-3,84,36,i,0.91
Cn1c2c(c(=O)n(C)c1=O)C(NC(=O)C(C)(C)C)(C(F)(F)F)C(=O)N2 (configuration not stated),-2.6,-2,31,64,96,i,1.1
C(=N\c1nc2ccccc2n1CCN1CCOCC1)/c1cccs1,-0.8,14,.,.,147,i,1
COc1ccc(OCCNS(=O)(=O)c2ccc3oc4ccccc4c3c2)cc1,-3.2,2,-15,91,110,i,1
CCOC(=O)/C(=C/c1ccco1)NC(=O)c1ccc(Br)o1,.,7,.,.,106,i,1.1
CCN(CC)c1ccc(C=C2C(=O)OC3(CCCC3)OC2=O)cc1,-1.2,-12,-14,120,104,i,0.98
CC1(C)CC(=O)C2=C(C1)NC(=O)NC2c1ccccc1 (configuration not stated),.,4,17,83,109,i,1.1
O=C(N/N=C1/CCCc2ccccc21)c1cc([N+](=O)[O-])cc([N+](=O)[O-])c1,.,-8,30,66,124,i,0.81
COc1ccc(Cl)cc1NC(=O)c1noc2c1CCCC2,.,-2,.,.,104,i,0.94
CCOC(=O)C1=C(C)NC(=O)NC1c1ccc2c(c1)OCO2 (configuration not stated),-0.8,-7,-216,129,109,i,0.99
O=C(COc1ccccc1[N+](=O)[O-])N/N=C/c1ccccn1,-0.7,-2,-24,94,102,i,0.96
Nn1c(Cc2cccc3ccccc23)nnc1SCc1ccc(Cl)c(Cl)c1,-0.9,-8,.,.,104,i,0.98
S=C(Nc1ccc(Oc2ccccc2)cc1)NC1CCCCCC1,-1.4,-2,.,.,99,i,0.94
Cc1cc(C)cc(NC(=O)C2CC(=O)n3ncnc3N2)c1 (configuration not stated),.,-1,.,.,106,i,0.92
CC1(C)C(C#N)=C(N)OC2=C1C(=O)CCC2,-2.6,0,.,.,105,i,1.1
C#CCOCCOCCOCCNc1nc(N2CCN(C(=O)[C@H](Cc3cc4ccccc4[nH]3)n3cc([C@@H](N)C(C)CC)nn3)CC2)nc(N2CCN(C(=O)[C@H](CCCCN)n3cc([C@@H](N)CC(C)C)nn3)CC2)n1 (some centres not stated),.,7,.,.,100,i,0.62
Cc1nnc2ccc(-c3cccc(NC(=O)c4ccc(Cl)nc4)c3)nn12,.,-7,-8,142,104,i,0.84
Cc1cc(=O)n2[nH]c(-c3ccc(F)cc3)cc2n1,-2.1,3,.,.,103,i,1.1
O=C(OCc1cc(Cl)ccc1OC(F)F)c1cncc(Br)c1,.,-7,-17,107,104,i,0.91
Cc1cc(C)nc(Nc2n[nH]c(COc3ccc(Cl)cc3)n2)n1,-1.0,-8,.,.,105,i,0.75
CCOC(=O)CN(Cc1sccc1C)C(=O)Nc1cccc(OC)c1,0.3,-16,-37,133,100,i,0.88
O=C(CCS(=O)(=O)c1ccccc1)Nc1nc(-c2ccccn2)cs1,-4.2,3,.,.,.,i,0.63
Cc1ccc(OCC(O)CNS(=O)(=O)c2ccccc2C(=O)O)cc1 (configuration not stated),-1.6,6,.,.,105,i,0.89
COc1ccc(/C=N/NC(=O)c2ccoc2C)cc1OC,0.1,-4,7,99,107,i,0.91
O=C(COc1ccccc1Cl)NNC(=O)C1CCCO1 (configuration not stated),-2.8,9,23,124,103,i,0.95
Cc1c(/C=C/C(=O)c2ccccc2)cnn1C,-4.1,-6,.,.,121,i,0.93
COc1cccc(/C=C2\N=C(c3c(-c4ccccc4)noc3C)OC2=O)c1,-1.1,6,.,.,-20,i,0.89

# Profiles from above. Screens in order: GALR2 agonist	PKD1 kinase inh	INS promoter inh	INS promoter inh cell count	RGS16-Gao	HSV replic up	HSV replic up primary fold
# O=C(COc1ccccc1Cl)NNC(=O)C1CCCO1 (configuration not stated) in the list: -2.8	9	23	124	103	i	0.95
# COc1cccc(/C=C2\N=C(c3c(-c4ccccc4)noc3C)OC2=O)c1 in the list: -1.1	6	.	.	-20	i	0.89
# O=C(OCc1cc(Cl)ccc1OC(F)F)c1cncc(Br)c1 in the list: .	-7	-17	107	104	i	0.91

# Continuation:
SMILES,GALR2 agonist,PKD1 kinase inh,INS promoter inh,INS promoter inh cell count,RGS16-Gao,HSV replic up,HSV replic up primary fold
Cc1ccc(NC(=O)CN(C)c2ccc(S(=O)(=O)N3CCCC3)cn2)cc1,.,-2,-117,87,100,i,0.91
COc1ccc2[nH]cc(CCn3ccc(=O)c(C)c3C)c2c1,.,9,.,.,102,i,1.1
CCOC(=O)c1nnn(-c2nonc2N)c1CNc1ccccc1,-0.9,-11,.,.,107,i,0.97
O=C(Cc1ccccc1)NCCc1ccc(Cl)cc1Cl,0.7,-11,-21,131,98,i,0.85
Cc1ccc(Cl)cc1NC(=O)C1CC(=O)Nc2ncnn21 (configuration not stated),.,.,.,.,107,i,0.91
CCOc1ccc(NC(=O)c2ccc(CNc3c(N4CCCC4)c(=O)c3=O)cc2)cc1,.,.,.,.,98,i,0.97
O=C(CN(C(=O)C1CSC(=O)C1)c1cccc(F)c1)NC1CCCC1 (configuration not stated),.,0,9,68,54,i,0.99
CC1=C(C(=O)Nc2cccnc2)C(c2cccnc2)n2ncnc2N1 (configuration not stated),-0.8,-3,7,100,97,i,1.1
COc1ccc(C2Nc3ccccc3C(=O)N2Cc2ccco2)cc1COc1ccc(NC(C)=O)cc1 (configuration not stated),-0.5,-2,-9,91,93,i,1
Cc1ccc2c(ccn3cc4c(c(=O)n(C)c(=O)n4C)c23)c1,.,-2,-5,96,108,i,0.95
CCOC(=O)Cn1c(=NC(=O)CN2C(=O)CCC2=O)sc2cc(S(N)(=O)=O)ccc21,-0.3,12,-28,135,101,i,0.93
O=C(O)CCSc1nnc(-c2ccncc2)n1-c1ccccc1,-4.7,-10,12,158,103,i,0.9
O=C(Nc1ccccc1-c1ccccc1)NC1CC2CCCC(C1)N2Cc1ccc(F)cc1 (configuration not stated),.,0,.,.,105,i,0.8
CCCn1nc2cc(C(=O)NC3CCc4ccccc43)ccc2c1OCC (configuration not stated),-1.1,-9,30,110,102,i,1.1
